Screening data as filed in PubChem BioAssay.
Marburg entry: blocks Marburg virus binding or cell entry; AID 720532; hit rate 6.5% among 18,000; Marburg virus pseudotype entry/binding inhibition, cell-based; control for the full effect not named in the record; many of its hits are not listed in these tables; Potency, µM (titrated, usually from 49.2 µM), for inactives: at the highest dose activity change, negative = inhibition, hits mostly inhibitors; active means well fitted inhibition curve with a large enough effect; inconclusive means small, poorly fitted or top-dose-only effect; inactive means no such curve, though single readings can be large or run the other way; tested in HEK293 cells; further: luciferase read-out
LASV entry inh: inhibitors of Lassa virus binding or entry into cells. AID 720533. hit rate 4.1% among 18,000. Lassa virus pseudotyped entry inhibition, cell-based qHTS; control for the full effect not named in the record; many of its hits are not listed in these tables. Potency, µM (doses to about 49.2 µM), for inactives: top-dose activity change, negative = inhibition, most hits filed as inhibitors; active = well fitted inhibition curve with a large enough effect; inconclusive = small, poorly fitted or top-dose-only effect; inactive = no such curve, though single readings can be large or run the other way; tested in HEK293 cells; further: luciferase read-out
* = called active by the depositor; ? = inconclusive; · = no result given; & = joins results of further samples; [ ] = remark or other dose. On the % scale 0 is the no-effect control and ±100 the full control effect; potency means the concentration at half of the fitted maximal effect. Some of the compounds tested (hit frequency here may not be typical).

Start of the listing, in advance (2 entries):
Molecule	Marburg entry	LASV entry inh
O=C(COc1ccc(Cl)cc1)N1CCN(Cc2ccc3c(c2)OCO3)CC1	0%	4%
CCOC(=O)C1C(C(=O)OC)=C(c2ccc(OC)cc2)c2ccccc2N1S(=O)(=O)C(F)(F)F (stereo unspecified)	-22%	-17%

The list itself, previewed entries included:
Molecule	Marburg entry	LASV entry inh
O=C(COc1ccc(Cl)cc1)N1CCN(Cc2ccc3c(c2)OCO3)CC1	0%	4%
CCOC(=O)C1C(C(=O)OC)=C(c2ccc(OC)cc2)c2ccccc2N1S(=O)(=O)C(F)(F)F (stereo unspecified)	-22%	-17%
COC(=O)C1=C(C(=O)OC)[C@@H]2N(C)c3ccc(OC)cc3[C@@]23C[C@@H](C(=O)OC)N(C(=O)c2ccco2)C3=N1	24%[8.59 µM]	14%[8.59 µM]
CC(=O)[C@@]1(O)CC[C@H]2[C@@H]3CCC4=CC(=O)CC[C@]4(C)C3(F)[C@@H](O)C[C@@]21C (stereo partly specified)	15%	-10%
Cc1cc(C(=O)NCC2CCC3(CCN(Cc4ccc(-c5ccccc5)cc4)CC3)O2)n(C)n1 (stereo unspecified)	?	-12%
CC[C@H](C)[C@H](NC(=O)[C@@H]1CCCN1C(=O)[C@H](Cc1cnc[nH]1)NC(=O)[C@H](CCCCNC(=O)[C@H](CCCN=C(N)N)NC(=O)OCc1ccccc1)NC(=O)[C@H](Cc1ccc(O)cc1)NC(=O)c1cccnc1)C(=O)O	5%	0%
COc1ccc(NC(=O)C[C@H]2C(=O)N(CCc3ccccc3)C[C@@H]2Cc2ccccc2)cc1	?	?
COCc1c(C(=O)NCC2CCCN(C)C2)cnn1-c1ncc2c(n1)-c1ccccc1CCC2 (stereo unspecified)	33%[activator]	-9%
COc1ccc2[nH]c(C(=O)c3ccccc3)cc2c1	3.2µM*	-9%
COc1cccc(OC)c1OCCNC[C@@H]1COc2ccccc2O1	-29%	-1%
C[C@H]1Cc2c(COc3ccccc3)nc3c(c2CO1)CN(C(=O)c1cccnc1)CC3	7%[8.59 µM]	38%[activator][8.59 µM]
Cc1ccc([C@H]2C[C@@H](n3cc(-c4ccc(F)cc4)nn3)[C@H](O)CN2Cc2cccs2)cc1	-16%	8%
Cc1ncc2c(c1CNC(=O)c1cncs1)CCN(C(=O)c1csc(-c3cccs3)n1)C2	35µM*	-21%
CCOC(=O)C1CCCCN1C(=O)c1cnn(-c2nccc(-c3cc(C)sc3C)n2)c1C1CC1 (stereo unspecified)	39%[activator]	-4%
N#Cc1c(Oc2cccc(OS(=O)(=O)CCCC(F)(F)F)c2)cccc1C(F)(F)F	?	-19%
COc1cc2oc(=O)cc(-c3ccc(-c4ccc(OC(F)(F)F)cc4)cc3)c2c(OC)c1OC	?	-6%
CC[C@@H]1C(c2ccccc2)=NN(c2ccccc2)[C@H]1C(=O)N1CCOC1=O	3%	-20%
COc1ccc2c(c1)OCc1c-2oc2cc(OC)ccc12	54%[activator]	4%
COCCCCCCCCCCCC(=O)O	10%&8%	12%&-4%
COc1ccc(-c2ccc(CN3C(C(C)C)C(=O)N(Cc4cn(CC5CCCCC5)nn4)CCS3(=O)=O)cc2)cn1 (stereo unspecified)	?	·
C[C@@](N)(C(=O)O)c1ccc(P(=O)(O)O)cc1	5%	-6%
O=C1c2cc(Br)ccc2O[C@@H](c2ccc3c(c2)OCO3)[C@@H]1O	39%[activator]	37%[activator]
COc1ccc(NC(=O)C[C@H]2C(=O)N(c3ccc(Br)cc3)C[C@@H]2C)cc1	22%	-10%
Cn1ccc2c(-c3cccc4ccccc34)cc3c(c21)C1CCC3O1 (stereo unspecified)	-20%	-18%
CC1=CC(=O)CC(C)(C)C1(O)/C=C/C(C)=C\C(=O)O (stereo unspecified)	16%&1%	-2%&-7%
COc1cc(OC)c(C(=O)CCCCN2CCC3(CC2)NC(=O)NC3=O)cc1NS(=O)(=O)c1ccc(C(F)(F)F)cc1	-30%&-23%	-9%&-14%
OC(c1ccccc1)(c1ccccc1)C1CN2CCC1CC2 (stereo unspecified)	-30%	2%
COc1ccc(OC[C@@H]2CC3[C@@H](CC[C@@H](C)[C@H]3c3ccc(Br)cc3)C(=O)O2)cc1 (stereo partly specified)	-5%[8.59 µM]	6%[8.59 µM]
COC(=O)C(=Cc1cc(Br)c(OC)c(Br)c1)C(=O)OC	?	-6%
CCN1CCN(C(=O)c2cc(NC(=O)COC)cc3nc(-c4ccncc4)n(C)c23)CC1	4%	-15%
CC[C@H](C)[C@H](NC(=O)[C@H](Cc1ccc(O)cc1)NC(=O)[C@@H]1CCCN1C(=O)[C@@H](NC(=O)[C@@H](N)CCCCN)[C@@H](C)CC)C(=O)N[C@@H](CC(C)C)C(=O)O	18%	-10%
O=S(=O)(CCNCCc1ccccc1)NC1CCCCC1	13%	15%
CC(C)CON=C1C[C@@H](O)[C@@H](O)[C@@H]2[C@H]3C(=O)N(C[C@@H]4CCCO4)C(=O)[C@@H]3CC[C@H]12	-10%[8.59 µM]	-8%[8.59 µM]
Cc1cccc(CN2CCN(C3CN(Cc4ccccc4)S(=O)(=O)C3)CC2)c1 (stereo unspecified)	10%	-8%
CC(C)C1C(=O)N(Cc2cn(CC3CCCCC3)nn2)CCS(=O)(=O)N1Cc1ccc(-c2ccncc2)cc1 (stereo unspecified)	5%	?
C=CCC(C)(NCc1ccccc1)C(=O)OCC (stereo unspecified)	-4%	-1%
COCc1ccc(CN2CCOc3ccc(C4=CCCCC4)cc3C2)o1	-21%	2%
CCC[C@@H]1C[C@@H](C(=O)NC(C(C)Cl)[C@H]2O[C@H](SC)[C@H](O)[C@@H](O)[C@H]2O)N(C)C1 (stereo partly specified)	5%	4%
C#CCN1C(=O)C2(CC(C)=C[C@@H](C)O2)c2c(Br)cccc21 (stereo partly specified)	46%[activator][8.59 µM]	34%[activator][8.59 µM]
O=C1C(=O)c2ncccc2-c2cccnc21	?	2.5µM*

4 entries already listed, sorted by SMILES length, lowest first.
Molecule	Marburg entry	LASV entry inh
O=C1C(=O)c2ncccc2-c2cccnc21	?	2.5µM*
C=CCC(C)(NCc1ccccc1)C(=O)OCC (stereo unspecified)	-4%	-1%
COCc1ccc(CN2CCOc3ccc(C4=CCCCC4)cc3C2)o1	-21%	2%
C#CCN1C(=O)C2(CC(C)=C[C@@H](C)O2)c2c(Br)cccc21 (stereo partly specified)	46%[activator][8.59 µM]	34%[activator][8.59 µM]

(cont.)
Molecule	Marburg entry	LASV entry inh
CC1C(=O)N(Cc2cn(Cc3ccco3)nn2)CCS(=O)(=O)N1Cc1ccc(-c2ccccc2)cc1 (stereo unspecified)	9%	?
COc1ccccc1CNS(=O)(=O)CCNCCc1ccccc1	7%	8%
CNC(=O)CSP(=S)(OC)OC	14%	10%
CC[C@H](C)[C@H](NC(=O)[C@H](CCC(=O)O)NC(=O)CNC(=O)[C@H](CCCCN)NC(=O)[C@H](CCC(=O)O)NC(=O)[C@H](CCSC)NC(=O)[C@H](CCSC)NC(=O)[C@H](CCSC)NC(=O)[C@H](CCC(=O)O)NC(=O)CNC(=O)[C@H](CO)NC(=O)[C@H](CO)NC(=O)[C@H](CO)NC(=O)[C@@H](N)CC(N)=O)C(=O)N[C@@H](CCCCN)C(=O)O	8%	2%
COc1cccc(O)c1CN1CCC2(CC1)c1ccccc1[C@@H](NC(=O)c1ccsc1)[C@@H]2OC	?	-29%
O=C(c1ccco1)N1CCN(C2CN(C3CCCCC3)S(=O)(=O)C2)CC1 (stereo unspecified)	16%	16%
COC(=O)CCCC1=CC2=C(c3ccccc3)C(=O)C(C)(OC(=O)C3CCCC3)C(=O)C2=CN1C1CCCCC1 (stereo unspecified)	?	1%[8.59 µM]
O=c1oc2ccccc2c(O)c1C(CC(O)c1ccc(-c2ccc(Br)cc2)cc1)c1ccccc1 (stereo unspecified)	28%	-21%
C=C(C)[C@H]1CC[C@]2(C(=O)O)CC[C@]3(C)[C@@H](CC[C@H]4[C@@]5(C)CC[C@@H](O)C(C)(C)[C@@H]5CC[C@@]43C)[C@H]12	-4%[17.8 µM]	0%[17.8 µM]
Nc1ccccc1N	18%[107 µM]	?
CCCCCC(=O)N1C[C@@H](O)[C@H](n2cc(COC(=O)c3ccccc3)nn2)C[C@H]1c1ccccc1	5%	12%
COc1ccc(-n2ccc(-c3sc(NCc4cc(OC)c5c(c4)OCO5)nc3C)n2)cc1	?	?
O[C@@H]1CO[C@H]2C1OC[C@@H]2O (stereo partly specified)	6%	2%
CN(C)CCc1c[nH]c2ccc(Cn3cncn3)cc12	4%	5%
CC(=O)OC[C@H]1O[C@H](CCON=C(C)CCN2CCCc3nc(C)c(C)cc32)C=C[C@H]1OC(C)=O	-28%[8.59 µM]	-19%[8.59 µM]
O=C(C=Cc1ccc2c(c1)OCO2)c1ccccc1	73%[activator][8.59 µM]	66%[activator][8.59 µM]
ClC1=C(Cl)[C@]2(Cl)[C@@H]3[C@@H]4C[C@@H]([C@H]5O[C@@H]45)[C@@H]3[C@@]1(Cl)C2(Cl)Cl	?	?
CCC(N)C(O)c1ccc(O)c(O)c1 (stereo unspecified)	-3%	9%
CC(COc1ccccc1)NN (stereo unspecified)	-4%	-9%
COc1cc2c(cc1OC)[C@@H]1O[C@](CCCCN3C(=O)c4ccccc4C3=O)(C2)Oc2c1c(=O)oc1ccccc21	3%[8.59 µM]	-1%[8.59 µM]
CC(C)[C@@H](CC(=O)N[C@@H]1CCCC[C@H]1C(=O)N[C@H](CC(=O)N[C@@H](CCC(=O)O)CC(=O)O)Cc1c[nH]c2ccccc12)NC(=O)C[C@H](CO)NC(=O)[C@@H]1CNCC[C@H]1N	-24%	1%
N#Cc1c(NC(=O)c2ccc(F)cc2)sc2c1CCCC2	49%[activator]	21%
O=C(O)CNC(=O)C(CS)Cc1ccccc1 (stereo unspecified)	0%	-3%
CO[C@H]1O[C@@H]2O[C@@]3(C)CC[C@H]4[C@H](C)CC[C@@H]([C@H]1C)[C@@]24OO3	?	?
C#CCOCC#CC[C@@]1(C(=O)OC)C=C[C@@H](C)[C@H](c2ccccc2Br)N1C(=O)C(F)(F)F	-23%[8.59 µM]	·
Nc1nccc(-c2c(-c3ccc(F)cc3)ncn2C2CCC(O)CC2)n1 (stereo unspecified)	?	·
Cc1ccc(S(=O)(=O)N2CCC(=O)N([C@H](COCc3ccc(C(F)(F)F)cc3)Cc3ccccc3)CC2)cc1	?	?
CCN1C(=O)N[C@@H](c2cccc(C(F)(F)F)c2)[C@@H](C(=O)OC)[C@H]1C	3%[8.59 µM]	-10%[8.59 µM]
CCCC[C@H](NC(C)=O)C(=O)N[C@@H](CCC(=O)O)C(=O)N[C@@H](Cc1cnc[nH]1)C(=O)N[C@H](Cc1ccccc1)C(=O)N[C@@H](CCCN=C(N)N)C(=O)N[C@H](Cc1c[nH]c2ccccc12)C(=O)NCC(N)=O	8%	-15%
C=CCSCC(N)C(=O)O (stereo unspecified)	10%	15%
CC(C)C[C@H](NC(=O)[C@H](Cc1ccccc1)C[C@@H](O)[C@H](Cc1ccccc1)NC(=O)OC(C)(C)C)C(=O)N[C@@H](Cc1ccccc1)C(N)=O	?	?
COc1ccc(/C=C/C(=O)c2cccs2)cc1OC	-27%	1%
CS(=O)(=O)CCNCc1ccc(-c2ccc3ncnc(Nc4ccc(OCc5ccccc5)cc4)c3c2)o1	?	?
COc1ccc2c(OC)c3ccoc3nc2c1OC	5%	1%
O=C1CCCC2[C@@H]3CCC[N@+]4([O-])CCC[C@H](CN12)C34 (stereo partly specified)	-7%	-3%
COC1C(O)C(C)O[C@H](OC2CC[C@@]3(C=O)C4CC[C@]5(C)C(C6=CC(=O)OC6)CC[C@@]5(O)C4CC[C@@H]3C2)C1O (stereo partly specified)	?	0.1µM*
O=CN1CCCN(C(=O)c2cc(NC(=O)c3ccccc3)cc3ncn(C4CCCC4)c23)CC1	13%	-3%
NC(=O)NCCC[C@H](N)C(=O)O	-1%	7%
CN1CCN(CCCNc2nc3ccc(Oc4ccc(NC(=O)Nc5cc(C(F)(F)F)ccc5F)cc4)cc3[nH]2)CC1	?	61%[activator]
CCCCC/C=C\C/C=C\C/C=C\C/C=C\CCCC(N)=O	5%&-3%&4%	-8%&-8%&4%
CCN(CC)c1ccc(C(=C2C=CC(=[N+](CC)Cc3cccc(S(=O)(=O)[O-])c3)C=C2)c2ccc(N(CC)Cc3cccc(S(=O)(=O)O)c3)cc2)cc1	?	?
COc1ccc([C@]23Cc4cc(C#N)ccc4[C@H](O2)c2c(cc(C)n(-c4ccccc4)c2=O)O3)cc1	2%[8.59 µM]	12%[8.59 µM]
COc1nc(N)nc2c1ncn2[C@@H]1O[C@H](CO)[C@@H](O)[C@@H]1O	-19%	-6%
Nc1ccccc1NC(=O)c1ccc(CNC(=O)OCc2cccnc2)cc1	10%	-7%
C[C@@H]1OC(=O)[C@H]2C[C@H]3CCCC[C@@H]3[C@@H](/C=C/[C@H]3CCC[C@H](C)N3C)[C@@H]12	?	5%
CN(C)CCOc1ccc(-c2nc(-c3ccc4c(c3)CCC4=NO)c(-c3ccncc3)[nH]2)cc1	?	-95%
COc1cc(CC(=O)O)ccc1O	11%	-1%
